# High-throughput results (PubChem BioAssay)
# GLA inh pH 4.5 = blocks human alpha-galactosidase A at pH 4.5. AID 1467. P06280. activity change, negative = inhibition, % at 105 µM. purified enzyme, 4-MU-alpha-Gal fluorescence, pH 4.5. 230,000 tested, under 10 active; inconclusive = small, poorly fitted or top-dose-only inhibition, or a rising curve; inactive = flat fitted curve, though single readings scatter; no compound was filed as active;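 further: 0% = full activity with enzyme and -100% = basal without enzyme; dose as in the result columns while the protocol names 77 µM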
# Target sequence (P06280 whole entry, looked up): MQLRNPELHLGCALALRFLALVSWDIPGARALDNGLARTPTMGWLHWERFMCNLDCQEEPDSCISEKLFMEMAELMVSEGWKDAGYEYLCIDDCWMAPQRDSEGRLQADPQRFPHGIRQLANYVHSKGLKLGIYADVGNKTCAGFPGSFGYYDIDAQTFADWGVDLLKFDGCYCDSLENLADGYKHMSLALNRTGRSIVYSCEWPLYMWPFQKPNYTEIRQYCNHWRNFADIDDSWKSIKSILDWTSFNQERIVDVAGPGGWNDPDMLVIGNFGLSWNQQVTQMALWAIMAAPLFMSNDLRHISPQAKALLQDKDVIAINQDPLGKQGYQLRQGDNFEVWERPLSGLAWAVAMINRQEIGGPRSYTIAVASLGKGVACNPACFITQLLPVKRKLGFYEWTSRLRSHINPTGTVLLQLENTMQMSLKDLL
# Rango-impB inh = prevents formation of the Rango-importin beta complex; Q14974; Rango CFP/YFP FRET sensor + importin beta, 45 min; Potency, µM (doses to about 92.2 µM), without a hit: at the top dose inhibition of complex formation; actives 0.031% (n = 340,000); active = rising FRET ratio curve, often small or poorly fitted; inconclusive = mostly compound fluorescence or quenching in the first reads; inactive = flat curves in all reads;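 further: potency means the concentration at half of the fitted maximal effect; 0% = DMSO wells and 100% = buffer wells lacking importin beta; nearly all actives have a fitted effect of over 15% in size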
#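 FRET biosensor Rango (snurportin 1 IBB between N-terminal EYFP and C-terminal Cerulean), 50 nM in PBS/1 mM DTT/0.02% Tween-20/0.1% BSA, preincubated 5 min RT with compound; 0.125 microM importin beta added, 45 min RT, CFP/YFP FRET ratio read.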
# miR-21 reporter = miR-21 reporter, rising signal. HeLa miR-21 FLuc reporter, luciferase, 48 h. Potency, µM (top dose mostly 38.3 µM), for the others: top-dose reporter change, positive = more light. 340,000 tested, under 10 active; active = well fitted rising curve with a large enough effect; inconclusive = small, poorly fitted or top-dose-only effect; inactive = no such curve, though single readings can be large or run the other way;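 further: % of control where 0% means no effect; miR-21 action dims this reporter so a rising signal means less miR-21 action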
#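 HeLa miR-21-FLuc reporter line, endogenous miR-21; 2000 cells/well in DMEM/10% FBS; compound titration up to ~40uM final, 48 h, 37 degree Celsius; luciferase detection reagent, 15 min lysis, CCD luminescence.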
# Rango release inh = inhibition of RanGTP-driven Rango-importin beta dissociation; Potency, µM (doses to about 46.1 µM), for inactives: at the top dose activity change, negative = inhibition; actives 0.071% (n = 340,000); O95149+P62826; AID 540253; Biochemical FRET Rango-importin beta, RanGTP-induced dissociation; active means falling FRET ratio curve, often poorly fitted, with flat reads before Ran was added; inconclusive means other falling curves, or compound fluorescence or quenching; inactive means flat or rising ratio curve;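 further: potency means the concentration at half of the fitted maximal effect; % of control where 0% means no effect; nearly all actives have a fitted effect of over 45% in size; -100% = wells without RanGTP and RCC1; the record marks most hits as doubtful in a second field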
#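 Rango/importin beta premix (0.1/0.25 uM final), PBS + 1 mM DTT + 0.02% Tween-20 + 0.1% BSA; cpd 5 min RT; FRET pre-read; + RanGTP-RCC1 (0.6 uM Ran, 2 mM GTP, 0.2 uM RCC1); 45 min RT; FRET post-read, ex 430, em 486/530 nm.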
# Numbers without * were called inactive; u = inconclusive; x = not tested or not shown; & = joins results of further samples. An excerpt, so the mix of outcomes need not match the whole.
no.	structure	GLA inh pH 4.5	Rango-impB inh
1	Cc1ccc(CN(C)CCc2ccccn2)cc1	3	-4.3%
2	COc1ccccc1OCc1ccc(C(=O)N/N=C/c2ccco2)cc1	2	-0.6%
3	O=C(NC(Cc1c[nH]c2ccccc12)C(=O)O)c1cccs1 (stereo not given)	4	-0.3%
4	O=C(O)CSC(NC(=O)c1cccnc1)(C(F)(F)F)C(F)(F)F	2	2.0%
5	C/C=C\C(=O)Nc1cccc(C2=NOC3(C2)C[C@@H](C(N)=O)N(C(=O)CCCCC)C3)c1 (stereo not given in full)	-2	1.5%
6	Cc1[nH]c2ccc(C(=O)NCCCN3CCN(C)CC3)cc2c1C	x	-1.1%
7	COc1ccc(NC(=O)CSc2nnc(Cc3cccs3)n2C)cc1	x	3.5%
8	Cc1ccc(S(=O)(=O)N2CCCCC2)cc1NC(=O)c1ccccn1	7	-3.3%

no.	miR-21 reporter	Rango release inh
1	-4%	-3%
2	-7%	-9%
3	5%	0%
4	-4%	1%
5	0%	-4%
6	-8%	-2%
7	x	4%
8	5%	1%

# Later entries.
no.	structure	GLA inh pH 4.5	Rango-impB inh
9	Cc1cccc(OCCCCCN2CCOCC2)c1C	x	-0.7%
10	CCN(CC)c1nc(C)c2c(c1C#N)CC(C)(C)OC2	-6	6.3%
11	CCOCCCNC(=O)C(c1ccccc1)N(Cc1cccs1)C(=O)CNC(=O)c1ccccc1 (stereo not given)	5	-0.7%
12	COc1ccc2c(c1)C(c1ccccc1)=NNC(c1ccco1)=N2	-10	-4.8%
13	O=C(CSc1nnc2sc3ccccc3n12)N1CCN(c2ccccc2)CC1	9	2.9%
14	O=C(c1cccc(NS(=O)(=O)c2cccc(F)c2)c1)N1CCN(c2ccccc2)CC1	0	-2.5%
15	CCOc1cc(CNCc2ccncc2)cc(Br)c1OCc1ccccc1F	-22	-0.6%
16	Cc1ccc(OCC(=O)NC(=S)Nc2cccc(NC(=O)c3ccc(Cl)cc3Cl)c2)cc1	2	5.3%

no.	miR-21 reporter	Rango release inh
9	-5%	-6%
10	-10%	-1%
11	0%	4%
12	-8%	2%
13	-4%	-11%
14	-2%	-1%
15	23%	-2%
16	-10%	29%

# New compounds follow.
no.	structure	GLA inh pH 4.5	Rango-impB inh
17	COc1cccc(CNC(C)C(=O)Nc2ccc(S(=O)(=O)N3CCCC3)cc2)c1 (stereo not given)	x	-0.5%
18	Nc1nnc(CC(=O)N/N=C/c2ccccc2OCc2ccc(F)cc2)s1	-2	1.3%
19	COc1ccc(-c2cccc(C(=O)N3CCOCC3)c2)cc1	x	-2.1%
20	COc1ccc(C(=O)NC(=S)Nc2cccc3cc(O)ccc23)cc1OC	x	0.0%
21	CCCNC(=O)OC[C@H]1O[C@H](CCO/N=C/[C@@H](OC)[C@H](C)/C=C/CC(=O)OC)C=C[C@@H]1Oc1ccc(OC)cc1	-10	x
22	O=C(Cc1c(C(=O)O)[nH]c2ccccc12)NCCN1CCN(c2ccccc2F)CC1	-4	-3.1%
23	N#Cc1c2c(c(NCc3cccnc3)n3c1nc1ccccc13)CCC2	10	u
24	COc1ccccc1NC(=O)Nc1nn(C)c2cccc(N(C)C)c12	-14	5.6%

no.	miR-21 reporter	Rango release inh
17	x	1%
18	-10%	14%
19	-40%	9%
20	-1%	11%
21	5%	x
22	-10%	-12%
23	-1%	u
24	6%	2%

# Copied from above, nos. 13–24
no.	structure	GLA inh pH 4.5	Rango-impB inh
13	O=C(CSc1nnc2sc3ccccc3n12)N1CCN(c2ccccc2)CC1	9	2.9%
14	O=C(c1cccc(NS(=O)(=O)c2cccc(F)c2)c1)N1CCN(c2ccccc2)CC1	0	-2.5%
15	CCOc1cc(CNCc2ccncc2)cc(Br)c1OCc1ccccc1F	-22	-0.6%
16	Cc1ccc(OCC(=O)NC(=S)Nc2cccc(NC(=O)c3ccc(Cl)cc3Cl)c2)cc1	2	5.3%
17	COc1cccc(CNC(C)C(=O)Nc2ccc(S(=O)(=O)N3CCCC3)cc2)c1 (stereo not given)	x	-0.5%
18	Nc1nnc(CC(=O)N/N=C/c2ccccc2OCc2ccc(F)cc2)s1	-2	1.3%
19	COc1ccc(-c2cccc(C(=O)N3CCOCC3)c2)cc1	x	-2.1%
20	COc1ccc(C(=O)NC(=S)Nc2cccc3cc(O)ccc23)cc1OC	x	0.0%
21	CCCNC(=O)OC[C@H]1O[C@H](CCO/N=C/[C@@H](OC)[C@H](C)/C=C/CC(=O)OC)C=C[C@@H]1Oc1ccc(OC)cc1	-10	x
22	O=C(Cc1c(C(=O)O)[nH]c2ccccc12)NCCN1CCN(c2ccccc2F)CC1	-4	-3.1%

no.	miR-21 reporter	Rango release inh
13	-4%	-11%
14	-2%	-1%
15	23%	-2%
16	-10%	29%
17	x	1%
18	-10%	14%
19	-40%	9%
20	-1%	11%
21	5%	x
22	-10%	-12%

no.	structure	GLA inh pH 4.5	Rango-impB inh
23	N#Cc1c2c(c(NCc3cccnc3)n3c1nc1ccccc13)CCC2	10	u
24	COc1ccccc1NC(=O)Nc1nn(C)c2cccc(N(C)C)c12	-14	5.6%

no.	miR-21 reporter	Rango release inh
23	-1%	u
24	6%	2%

# (cont.)
no.	structure	GLA inh pH 4.5	Rango-impB inh
25	O=C1CCCC/C1=C/Nc1cccc(C(F)(F)F)c1	-19	-3.2%
26	CCCN(CC(=O)Nc1ccc(F)c(F)c1F)C(=O)C1=COCCO1	x	0.7%
27	COc1ccc(C2NC(=O)NC(C)=C2C(=O)OCc2ccccc2)cc1 (stereo not given)	x	-1.0%
28	Cc1cc(NC(=O)C2CC(=O)OC2c2ccccc2)no1 (stereo not given)	-3	0.3%
29	COCCn1c(-c2ccccc2)nc2c(c(=O)c3ccccc3n2C)c1=O	3	x
30	COc1ccc(OC)c(/C=N/NC(=O)CCN2CCN(C(c3ccccc3)c3ccccc3)CC2)c1	-18	-0.1%
31	O=C(c1cc(-c2ccc(O)cc2)on1)N1CCN(c2ccccc2)CC1	x	u
32	Cc1nn(Cc2ccccc2)c2ncccc12	x	-1.3%

no.	miR-21 reporter	Rango release inh
25	-11%	18%
26	x	-2%
27	-4%	0%
28	-3%	0%
29	-5%	x
30	0%	-19%
31	8%&11%	-7%
32	-7%	-3%

# (list continues)
no.	structure	GLA inh pH 4.5	Rango-impB inh
33	O=C(NCC1CCCO1)C1CC(=O)N(c2ccc(Cl)cc2)C1 (stereo not given)	x	1.2%
34	NNC(=O)CCS(=O)(=O)c1ccc2ccccc2c1	-3	1.3%
35	COc1ccc(-c2nc(C#N)c(N3CCN(c4ccccc4)CC3)o2)cc1	3	-3.0%
36	Cc1cc(C)c(S(=O)(=O)N2CCN(C(=O)CCn3nc(C)c(C)c3C)CC2)c(C)c1	x	0.6%
37	Cc1cc(C)n(C(=O)CNc2cccc(Cl)c2C)n1	5	-0.6%
38	Cc1c(C(=O)N2CCCC2)oc2c1-c1nn(CC(=O)NCCCN3CCCCC3)cc1CC2	x	-1.3%
39	CC(C)C(c1nnnn1C1CCCC1)N1CCOCC1 (stereo not given)	-1	-0.6%
40	COc1ccc2oc(=N)c(-c3nnc4n3CCCCC4)cc2c1	7	3.6%

no.	miR-21 reporter	Rango release inh
33	0%	10%
34	-4%	0%
35	-12%	10%
36	9%	-6%
37	-3%	32%
38	0%	5%
39	-3%	24%
40	-19%	1%

# Continuation:
no.	structure	GLA inh pH 4.5	Rango-impB inh
41	C[C@H](NC(=O)[C@@H]1Cc2ccccc2CN1)C(=O)Nc1ccc2c(c1)OCCO2	x	-4.5%
42	COc1cc(OC)c2c(N)c(C#N)c(C(F)(F)C(F)(F)F)nc2c1	-4	-0.6%
43	Cc1ccccc1NC(=O)Cc1nc(COC(=O)Cc2ccccc2F)cs1	x	0.8%
44	CCOc1ccc(C(=O)OCn2nnc3ccccc3c2=O)cc1OC	4	5.5%
45	c1ccc(CCNc2nc3ccccc3s2)cc1	-6	7.9%
46	CCc1ccc(OCCCOc2ccc(C=O)cc2)cc1	-3	1.1%
47	Cc1ccc(-c2nc(N)s[n+]2-c2ccccc2)cc1	2	-1.7%
48	CCOc1ccc(NC(=O)C(=O)N/N=C\c2ccc(CNS(=O)(=O)c3ccccc3)o2)cc1	-5	3.1%

no.	miR-21 reporter	Rango release inh
41	-16%	-7%
42	11%	17%
43	x	-20%
44	-5%	0%
45	-30%	0%
46	-19%	32%
47	-49%	1%
48	1%	11%

# Continuation:
no.	structure	GLA inh pH 4.5	Rango-impB inh
49	CSCCC(NC(=O)c1ccco1)C(=O)NCC(c1ccccc1)N(C)C (stereo not given)	x	-0.3%
50	CC(NC(=O)/C=C/c1ccco1)c1nc2ccccc2n1Cc1cccc(Cl)c1 (stereo not given)	8	-5.2%
51	O=C(NCC(=O)N1CCOCC1)OCc1ccccc1	x	0.1%
52	O=C(CSc1nnc(-c2cccnc2)s1)Nc1ccc(C(=O)O)cc1	-4	-3.3%
53	CCOCc1c(C(=O)OCC(=O)NCc2ccc(F)cc2)oc2ccccc12	x	-0.5%
54	COc1ccc(-c2c(C)n([O-])c3c([n+]2=O)CCC3)cc1OC	-3	0.0%
55	COc1ccc(S(=O)(=O)N2CCC(C(=O)NC3CC3)CC2)cc1C	x	1.9%
56	CCOc1ccc(CCNC(=O)c2nnc(CS(=O)(=O)c3ccccc3)o2)cc1OCC	x	3.9%

no.	miR-21 reporter	Rango release inh
49	x	7%
50	-3%	-8%
51	-10%	-1%
52	-6%	1%
53	x	-7%
54	-1%	9%
55	0%	-23%
56	-2%	6%

# Next part:
no.	structure	GLA inh pH 4.5	Rango-impB inh
57	CC(C)[C@H](NC(=O)c1ccccc1F)C(=O)Nc1nc2c(s1)CCCC2	0	1.3%
58	N#Cc1c(N)nc2c(c1-c1ccncc1)CCCCCC2	x	1.8%
59	Cc1ccc(S(=O)(=O)N2CCOCC2)cc1C(=O)OCC(=O)N1c2ccccc2NC(=O)C1(C)C	-1	x
60	Cc1nc2c(cc1C(=O)N/N=C/c1ccc([N+](=O)[O-])cc1)c(=O)n(C)c(=O)n2C	8	6.2%
61	CN(C)CCN(Cc1ccco1)S(=O)(=O)c1ccc(-c2ccc(=O)[nH]n2)s1	x	2.9%
62	Cc1cc(C)n(-c2c(C)[nH]c3ccccc23)n1	-4	4.0%
63	CN(C(=O)c1ccc(NC(=O)Cc2ccc(NC(=O)C3CCCN(C(=O)C4CCC4)C3)cc2)cc1)C1CCCC1 (stereo not given)	x	5.8%
64	CCOCCCNC(=O)c1[nH]c(C)c(C(C)=O)c1C	-9	u

no.	miR-21 reporter	Rango release inh
57	-32%	-9%
58	x	-4%
59	-3%	x
60	-4%	-1%
61	-1%	24%
62	5%	-11%
63	x	-3%
64	1%	-1%

# (more compounds)
no.	structure	GLA inh pH 4.5	Rango-impB inh
65	O=C(Cn1c2ccccc2c(=O)c2ccccc21)N/N=C/c1cc([N+](=O)[O-])ccc1N1CCCCCC1	-11	-3.3%
66	O=C(N/N=C/c1cccc([N+](=O)[O-])c1)c1cnccn1	-2	4.6%
67	COc1ccc2c(c1)C(=NN)c1cc(OC)ccc1-2	11	u
68	CCOC(=O)c1c(C)[nH]c(C)c1S(=O)(=O)NC(CC)CN1CCOCC1 (stereo not given)	x	-1.1%
69	Cc1cc(Cl)ccc1OCC(=O)NCCCCc1ccccc1	-9	-0.8%
70	COc1ccc(C)cc1-n1c(SCC(=O)Nc2cccc(C(=O)O)c2)nc2ccccc2c1=O	3	-0.1%
71	CCCCCn1c(=O)[nH]c2cc(C(=O)Nc3ccc(OC)cc3)ccc2c1=O	x	2.3%

no.	miR-21 reporter	Rango release inh
65	0%	-17%
66	-10%	1%
67	-20%	5%
68	0%	-1%
69	-11%	-7%
70	1%	-4%
71	5%	8%
